Assay outcomes: PubChem BioAssay, National Center for Advancing Translational Sciences (NCATS)
StopGo RLuc: FMDV 2A StopGo reporter, Renilla signal; HEK cells with a luciferase reporter of 2A StopGo recoding; Potency, µM (highest dose often 57.5 µM), for the others: top-dose signal change, negative = less light; 120,000 tested, 0.32% active; active means well fitted falling curve with a large enough effect; inconclusive means small, poorly fitted or top-dose-only effect; inactive means no such curve, though single readings can be large or run the other way; note: nearly all actives have a fitted effect of over 55% in size; overnight with compound
StopGo FLuc: FMDV 2A StopGo reporter, firefly signal. HEK cells with a luciferase reporter of 2A StopGo recoding. Potency, µM (series often up to 57.5 µM), without a hit: at the top dose signal change, negative = less light. 120,000 tested, 0.23% active. AID 1745856; active = well fitted falling curve with a large enough effect; inconclusive = small, poorly fitted or top-dose-only effect; inactive = no such curve, though single readings can be large or run the other way; note: nearly all actives have a fitted effect of over 60% in size; overnight with compound
* hit, by the source's call; ? = inconclusive; & = joins results of further samples; [ ] = remark or other dose. % is set by controls: 0 for no effect and ±100 for the full control effect; potency is the fitted concentration of half-maximal effect. Some of the compounds tested (hit frequency here may not be typical).

1) Cc1ccc(CNC(=O)CN(c2cc(C)cc(C)c2)S(=O)(=O)c2c(C)[nH]c(=O)[nH]c2=O)cc1
2) Cc1cccc(-c2noc(C(C)Oc3ccc(Br)cc3)n2)c1 (stereo not given)
3) COc1ccc2cc(C(=O)N(C)Cc3ccccc3)[nH]c2c1
4) O=C(CCC(=O)c1cccs1)OC1CCOC1=O (stereo not given)
5) Fc1ccc(C(Nc2ccc(Cl)c(C(F)(F)F)c2)c2nnc(-c3ccccc3)o2)cc1 (stereo not given)
6) Cc1cc2c(c(=O)o1)C(c1ccco1)C(C#N)=C(N)O2 (stereo not given)
7) C/C(=N/O)c1ccccc1O
8) Cc1ccc(NC(=O)CN2CCN(C(=O)Cc3c[nH]c4ccccc34)CC2)cc1
9) CONC(=O)CSCC(=O)Nc1cccc(C)c1
10) COc1ccccc1OCC(=O)Sc1ccc(Cl)cc1

Screen / compound no.	1	2	3	4	5	6	7	8	9	10
StopGo FLuc	-19%	88%[activator]	29%	0%	-9%	39%[activator]	15%	2%	15%	-3%
StopGo RLuc	-6%	17%	10%	2%	44%[activator]	29%	6%	3%	2%	-7%

11) O=C(CSc1nnc(-c2ccncc2)n1Cc1ccccc1)Nc1ccccc1C(=O)NC1CC1
12) O=C(NNC(=O)C1CCCCC1)c1c[nH]c2ccccc12
13) O=C(CSc1nc2cc(Cl)ccc2s1)N1c2ccccc2Sc2ccc(C(F)(F)F)cc21
14) COc1ccc(-n2c(SCC(=O)N3CCCc4ccccc43)nc3c([nH]c4ccccc43)c2=O)cc1
15) CC(=O)N1CCN(c2ccccc2NC(=O)C2(c3ccc(Br)cc3)CCCC2)CC1
16) Cc1ccc(C(=O)Nc2ccc3oc(-c4cccnc4)nc3c2)c(Cl)c1
17) Cc1ccc(S(=O)(=O)N2CCc3cc(C(=O)Nc4ccc(Cl)cc4C)ccc32)cc1
18) CC1=C(C(=O)Nc2ccccc2C)C(c2cccs2)n2nc(SCc3cc(C)ccc3C)nc2N1 (stereo not given)
19) Cn1c(SCC(=O)NCc2ccc3c(c2)OCO3)nnc1-c1ccco1
20) CSc1ccc(C(C)NC(=O)c2ccccc2C)cc1 (stereo not given)

Screen / compound no.	11	12	13	14	15	16	17	18	19	20
StopGo FLuc	32%[activator]	4%	19%	1%	-16%	44%&28%[activator]	-11%	-7%	4%	-7%
StopGo RLuc	0%	21%	-2%	-2%	3%	3%&-14%	-5%	-6%	0%	11%

21) O=C(CN1CCN(S(=O)(=O)c2ccc(F)cc2)CC1)N1CCCC1c1ccc2c(c1)OCCO2 (stereo not given)
22) COc1cc(/C=C/C(=O)c2ccccc2C)cc(OC)c1OC(F)F
23) Cc1ccc(-c2nnc(Nc3ccccc3)c3ccccc23)cc1S(=O)(=O)N1CCN(C)CC1
24) CCc1ccc(NCc2cc3ccc(OC)cc3n(CC(=O)Nc3ccc(F)cc3F)c2=O)cc1
25) Cc1cc(O)c2c(C)c(CC(=O)NCCc3cccc(F)c3)c(=O)oc2c1
26) Cc1ccc(-c2nn3c(C)nnc3s2)cc1NC(=O)c1ccc(Br)o1
27) CC(=O)N1CCC2(CC1)OC(=O)C(C)=C2C(=O)Nc1cccc(Cl)c1C
28) COc1ccccc1-c1coc2cc(OC(=O)c3ccccc3)ccc2c1=O
29) COc1ccc(Cc2nnc(Nc3ccc(OC)cc3)[nH]c2=O)cc1
30) COc1ccc(C(=O)C(C)OC(=O)c2cc3cccc(OC)c3oc2=O)cc1 (stereo not given)

Screen / compound no.	21	22	23	24	25	26	27	28	29	30
StopGo FLuc	-11%	?	-6%	7%	2%	43%[activator]	-4%	14%	-5%	-1%
StopGo RLuc	-13%	28µM*	5%	-5%	0%	21%	1%	4%	-9%	9%

The list goes on (four carried over from the part before).
27) CC(=O)N1CCC2(CC1)OC(=O)C(C)=C2C(=O)Nc1cccc(Cl)c1C
28) COc1ccccc1-c1coc2cc(OC(=O)c3ccccc3)ccc2c1=O
29) COc1ccc(Cc2nnc(Nc3ccc(OC)cc3)[nH]c2=O)cc1
30) COc1ccc(C(=O)C(C)OC(=O)c2cc3cccc(OC)c3oc2=O)cc1 (stereo not given)
31) O=C(CSc1ccc2ccccc2n1)NC1CC1
32) COc1ccc(S(=O)(=O)c2nnn(-c3cccc(Cl)c3)c2N)cc1
33) Cc1cccc(C(=O)N(Cc2cccs2)C2CC2)c1
34) Cc1oc2cc(OCC(N)=O)ccc2c(=O)c1Oc1ccc(-c2ccccc2)cc1
35) CCc1cccc(C)c1NS(=O)(=O)c1c(C(=O)N2CCC(C)CC2)c(C)n(C)c1C
36) Cc1ccc2c(CN(C)Cc3cccs3)cc(=O)oc2c1C
37) O=C(NC1CCN(CC(F)(F)F)CC1)c1ccc(F)cc1
38) CN(C)CC(C)(C)CNc1nc(-c2cccnc2)nc2ccccc12
39) O=C(NCC1CCN(C2CC2)C1)Nc1ccc(Cl)cc1 (stereo not given)
40) COC(=O)c1ccc(NC(=O)c2ccc3nc(-n4cccc4)sc3c2)cc1

Screen / compound no.	27	28	29	30	31	32	33	34	35	36	37	38	39	40
StopGo FLuc	-4%	14%	-5%	-1%	94%[activator]	2%	15%	0%	-17%	145%[activator]	0%	4%	48%[activator]	51%[activator]
StopGo RLuc	1%	4%	-9%	9%	24%	49%[activator]	104%[activator]	16%	96%[activator]	?	-7%[1.06 µM]	4%	-6%	0%

Reformatted: 6 of the compounds above
nr | Compound | StopGo FLuc | StopGo RLuc
13 | O=C(CSc1nc2cc(Cl)ccc2s1)N1c2ccccc2Sc2ccc(C(F)(F)F)cc21 | 19% | -2%
7 | C/C(=N/O)c1ccccc1O | 15% | 6%
19 | Cn1c(SCC(=O)NCc2ccc3c(c2)OCO3)nnc1-c1ccco1 | 4% | 0%
16 | Cc1ccc(C(=O)Nc2ccc3oc(-c4cccnc4)nc3c2)c(Cl)c1 | 44%&28%[activator] | 3%&-14%
15 | CC(=O)N1CCN(c2ccccc2NC(=O)C2(c3ccc(Br)cc3)CCCC2)CC1 | -16% | 3%
17 | Cc1ccc(S(=O)(=O)N2CCc3cc(C(=O)Nc4ccc(Cl)cc4C)ccc32)cc1 | -11% | -5%

(continued)
41) CCOc1ccc(Nc2nc3cc(S(=O)(=O)CC)ccc3o2)cc1
42) COc1ccc(-c2cc(C(F)(F)F)n3nc(C(=O)OC(C)C)cc3n2)cc1
43) Cc1ccc(Cn2c(C)c3cnn(CC(=O)NCc4cccnc4)c(=O)c3c2C)cc1
44) COc1ccc(NC(=O)c2cc(=O)c3ccc(C)cc3o2)cc1
45) CC1(C(=O)NC2CCCCC2)Cc2ccccc2C(=O)N1Cc1ccccc1Cl (stereo not given)
46) COC(=O)c1cccc(CN2C(=O)SC(Nc3ccc(Cl)cc3)C2=O)c1 (stereo not given)
47) Cc1cc2n(n1)CCC(=O)N2Cc1ccc(C(=O)Nc2cc(Cl)ccc2C)cc1
48) CC1CCN(C(=O)CSc2n[nH]c(-c3ccc(F)cc3)n2)CC1
49) CNC(=O)c1c(NC(=O)c2cc(=O)c3cc(C)c(C)cc3o2)sc2c1CCCC2
50) N#Cc1nc(-c2ccco2)oc1N1CCN(C(=O)c2ccc(F)cc2)CC1

Screen / compound no.	41	42	43	44	45	46	47	48	49	50
StopGo FLuc	76%[activator]	-21%	?	18%	0%	-13%	3%	-25%	18%	4%
StopGo RLuc	18%	-1%	?	16%	-5%	-1%	-11%	172%[activator]	4%	-1%

51) COc1cc(NC(=O)CN(c2cc(C)cc(C)c2)S(=O)(=O)c2c(C)[nH]c(=O)[nH]c2=O)cc(OC)c1
52) CCn1cc(C(=O)NCc2ccc(Cl)cc2)c(=O)c2cc(S(=O)(=O)N(C)C3CCCCC3)ccc21
53) CCN(CC)CCNC(=O)Cn1cnc2sc(C)c(S(=O)(=O)N3CCC(C)CC3)c2c1=O
54) CONC(=O)C(Sc1ccccc1)c1ccccc1 (stereo not given)
55) N#CC1(C(N)=O)C(c2cccs2)CC(=O)CC1c1cccs1 (stereo not given)
56) Cc1c(-c2ccccc2)nn2c1NC(=O)CC2C(=O)Nc1ccc2c(c1)OCO2 (stereo not given)
57) Cc1ccnc(NC(=O)C2CCN(C(=O)C(C)(C)C)CC2)c1
58) O=C1CSc2ccc(C(=O)OCC(=O)Nc3ccccc3[N+](=O)[O-])cc2N1
59) O=C(CCC1N=C2c3ccccc3N=C(SCc3ccc(Cl)cc3)N2C1=O)N1CCN(c2ccccc2)CC1 (stereo not given)
60) CC(C)C(NC(=O)c1ccc(S(=O)(=O)N(C)C)cc1)c1ccc2c(c1)OCCO2 (stereo not given)

Screen / compound no.	51	52	53	54	55	56	57	58	59	60
StopGo FLuc	-6%	-4%	-16%	0%	1%	9%	16%	108%[activator]	-16%	2%
StopGo RLuc	-7%	-8%	-10%	51%[activator]	-5%	-2%	-1%	6%	23%	-4%

61) CCc1ccc(CN(Cc2cn[nH]c2-c2ccc(OC)cc2)C(=O)Nc2ccc(Br)cc2)cc1
62) COc1ccc2nc(C#N)ccc2c1
63) COc1ccc(CCNC(=O)CSc2nc(-c3ccc(F)cc3)cc(C(F)(F)F)n2)cc1OC
64) COc1ccc(S(=O)(=O)c2cn(Cc3ccccc3)c3cc(F)c(F)cc3c2=O)cc1
65) COc1ccc(OC)c(/C=C(\C#N)C(=O)Nc2cccc(C(F)(F)F)c2)c1
66) CCOC(=O)C1CCN(C(=O)C(C)OC(=O)c2nn(C(C)C)c(=O)c3ccccc23)CC1 (stereo not given)
67) NS(=O)(=O)c1ccc(NC(=O)CCN(Cc2cccs2)C2CC2)cc1
68) N#Cc1ccc(C(=O)C(C#N)C(=O)Nc2cccc3ccccc23)cc1 (stereo not given)
69) O=C(CCc1nc2ccccc2c(=O)[nH]1)N1CCCC1CC1CCCCC1 (stereo not given)
70) Nc1c(C(=O)Nc2ccccc2F)sc2nc3c(cc12)CCCCCC3

Screen / compound no.	61	62	63	64	65	66	67	68	69	70
StopGo FLuc	5%	?	-17%	-13%&-9%	0%	61%[activator]	-5%	0%	-26%	54%[activator]
StopGo RLuc	-10%	-5%[1.06 µM]	-14%	-9%&2%	?	61%[activator]	-6%	11%	-21%	-6%

71) O=S(=O)(Cc1ccc(F)cc1Cl)c1ccc2ccccc2c1
72) O=C(Nc1cccc(C(F)(F)F)c1)C1CCN(S(=O)(=O)c2cccc3nsnc23)CC1
73) COc1ccc(C(=O)OCc2cc(=O)n3nc(C4CC4)sc3n2)cc1OC
74) O=C(Nc1cccc(Br)c1)c1cc(-c2cccnc2)nc2ccccc12
75) CCCN(C(=O)c1cn(C)c(=O)c2cc(OC)c(OC)cc12)c1cccc(C)c1
76) COc1ccccc1NC(=O)CSc1oc(-c2cccs2)nc1S(=O)(=O)c1ccc(C)cc1
77) CC(=O)c1c(C)[nH]c(C(=O)OC(C)C(=O)c2ccc(F)cc2)c1C (stereo not given)
78) Cc1ccc(CNC(=O)Cn2c(=O)n(-c3ccc(Cl)cc3)c(=O)c3c(C)c(C)sc32)cc1
79) COc1ccc(N2C(N)=C(C#N)C(c3cc(CN4CCOCC4)cs3)C3=C2CCCC3=O)cc1 (stereo not given)
80) CCc1ccc(CNC(=O)c2ncoc2-c2cccc(OC)c2)cc1

Screen / compound no.	71	72	73	74	75	76	77	78	79	80
StopGo FLuc	16%	?	-1%	?	44%	-18%	-38%	-24%	-4%	20%
StopGo RLuc	0%	-12%	-16%	?	94%[activator]	56%[activator]	?	-13%	2%	8%

81) COc1ccc2cc(C(=O)NC(CN(C)C)c3ccccc3)[nH]c2c1 (stereo not given)
82) COc1ccc(NC(=O)Cn2cc(C(=O)c3ccncc3)c(=O)c3cc(C)ccc32)cc1Cl
83) COc1ccc2nc(SCc3csc(NC(C)=O)n3)[nH]c2c1
84) COc1ccc(-c2nc3c(C#N)c[nH]n3c2NC2CCCC2)c(OC)c1
85) Clc1ccc(-c2nc(-c3cccc(Br)c3)no2)s1
86) CCC(=O)N1c2ccccc2CC1C(=O)NCCN1CCN(c2cccc(Cl)c2)CC1 (stereo not given)
87) O=C(NCc1ccccc1)C(=O)NCC(c1ccc2c(c1)OCO2)N1CCOCC1 (stereo not given)
88) FC(F)(F)c1c(C(F)(F)C(F)(F)F)nc2ccccc2c1Nc1ccccc1

Screen / compound no.	81	82	83	84	85	86	87	88
StopGo FLuc	-8%	-6%	-4%	-14%	84%[activator]	-25%	-17%	2%
StopGo RLuc	-8%	-9%	-32%	40%[activator]	17%	-24%	-2%	0%
